# Ab BasE inh – BasE siderophore biosynthesis inhibition; purified BasE, fluorescence polarization binding displacement; inhibition, % (test concentration not listed); actives 0.1% (n = 84,000);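 active = both replicates above 25% with normal brightness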;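 also: 0% = negative plate control signal and 100% = positive plate control signal; stock transfer was 100 nL into about 30 µL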
# LANA-nucl inh – inhibitors of KSHV LANA binding to nucleosomes | FITC-LANA1-23 / chicken nucleosome fluorescence polarization; stronger effect = lower value | z-score (no concentration beside the values) | actives 0.3% (n = 51,000) | AID 720717;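 active = both repeat wells score below -2 in polarization z-score versus plate sample wells, excluding overly bright wells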;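 also: 100 nL library stock added to about 30 µL; numbers are from one replicate; some results filed as inactive read as strong as hits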
#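 Assay system: purified chicken nucleosomes with FITC-labelled LANA N-terminal peptide (1-23) / Probe or stimulus: 50 nM FITC-LANA1-23 probe / Compound dosing: pin-transferred compound, 100 nL / Times: compound with peptide–nucleosome mix 10–45 min at room temperature / Technique: fluorescence polarization, 480 nm excitation, 535 nm parallel and perpendicular emission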
# * hit, by the source's call; · = not tested or not shown; & = joins results of further samples. The list is partial. The share of hits here may be higher or lower than overall.
# Sample of the layout, four compounds:
SMILES,Ab BasE inh,LANA-nucl inh
Cc1n(O)c2c3c(c4c(c2[n+]1[O-])n(O)c(C)[n+]4[O-])[n+]([O-])c(C)n3O,-0.3,0.21
CC1(C)CC(=O)C2=C(C1)Nc1nc(=S)[nH]c(N)c1C2c1ccncc1 (configuration not stated),-1.1,·
CCOC(=O)c1c(C)oc2c1c1c(c3ccccc32)OCN(Cc2ccco2)C1,-0.7,·
Cc1ccccc1NC(=O)Cn1c(C)cc(C)c(C#N)c1=O,1.6,·

# Results, from the start:
SMILES,Ab BasE inh,LANA-nucl inh
Cc1n(O)c2c3c(c4c(c2[n+]1[O-])n(O)c(C)[n+]4[O-])[n+]([O-])c(C)n3O,-0.3,0.21
CC1(C)CC(=O)C2=C(C1)Nc1nc(=S)[nH]c(N)c1C2c1ccncc1 (configuration not stated),-1.1,·
CCOC(=O)c1c(C)oc2c1c1c(c3ccccc32)OCN(Cc2ccco2)C1,-0.7,·
Cc1ccccc1NC(=O)Cn1c(C)cc(C)c(C#N)c1=O,1.6,·
CCOC(=O)/C(C#N)=C/c1ccc(-c2cccs2)s1,-7.3,-4.4
Cc1cc(-c2csc(CC#N)n2)c(C)n1Cc1ccc2c(c1)OCO2,1.0,·
CC(C)=C1C(=O)Nc2ccc(S(=O)(=O)Nc3ccccc3)cc21,-3.3,·
CCOC(=O)c1ccc(NCc2ccc(N(C)C)cc2)cc1,0.1,·
COc1ccc(-c2cccc(NS(=O)(=O)c3ccccc3)c2)nn1,-2.9,-0.37
CC(C)(C)S(=O)(=O)c1cnc(-c2ccc(Cl)cc2)nc1N,0.1,0.67
CC1CC(C)CN(C(=O)COC(=O)c2ccc(C#N)cc2)C1 (configuration not stated),3.8,·
O=C(NC1CC1)c1ccccc1I,1.4,0.16
CCCCc1c(C(=O)O)cccc1C(=O)O,-0.5,1.8
CCOC(=O)COc1c(/C=C2\SC(=S)N(Cc3ccco3)C2=O)cccc1OC,-4.9,2.4
CCCCC/C=C\CC(O)/C=C/c1cccc(CC(O)CCCCO)n1 (configuration not stated),0.1,-0.58
CCOc1ccc(CCNC(=O)C2CCN(c3nc(-c4ccc(OC)cc4)no3)CC2)cc1,-2.6,2.7
CCC(C)NC(=O)CSc1ncc(C#N)c(N)n1 (configuration not stated),-1.8,3
CN(C)CCn1c2c(c(SCC(=O)Nc3ccccc3)nc1=O)CCCC2,0.9,-1.5
Cc1ccc(-c2cn3c(n2)sc2cc(C(=O)NC(C)C)ccc23)cc1,1.4,-0.66
CC1CN(c2ccc3nnc(-c4ccc(C(F)(F)F)cc4)n3n2)CC(C)O1 (configuration not stated),1.7,·
O=c1[nH]cc(C(F)(F)F)c(=O)[nH]1,2.3,-1.3
Cc1[nH]c2ccccc2c(=O)c1CO,-0.3,0.32
CC(=O)N1N=C(c2cccc(C)c2)OC1c1ccccc1C (configuration not stated),8.4,-0.96
COc1ccc(-c2cnc3cc(C)nn3c2N)cc1,·,-0.25
O=C(O)C(Cc1ccccc1)NS(=O)(=O)c1ccccc1 (configuration not stated),0.8,·

# By substructure, the entries above with a carbonyl joined to an NH by a bond outside any ring
SMILES,Ab BasE inh,LANA-nucl inh
Cc1ccccc1NC(=O)Cn1c(C)cc(C)c(C#N)c1=O,1.6,·
O=C(NC1CC1)c1ccccc1I,1.4,0.16
CCOc1ccc(CCNC(=O)C2CCN(c3nc(-c4ccc(OC)cc4)no3)CC2)cc1,-2.6,2.7
CCC(C)NC(=O)CSc1ncc(C#N)c(N)n1 (configuration not stated),-1.8,3
CN(C)CCn1c2c(c(SCC(=O)Nc3ccccc3)nc1=O)CCCC2,0.9,-1.5
Cc1ccc(-c2cn3c(n2)sc2cc(C(=O)NC(C)C)ccc23)cc1,1.4,-0.66

# Next part
SMILES,Ab BasE inh,LANA-nucl inh
Cc1noc(C)c1COC(=O)c1ccccc1NC(=O)c1ccco1,0.4,·
CCCSc1nnc(CN2CCOCC2)n1C,-1.3,0.082
N#CCn1c(COC(=O)CN2C(=O)C3CC=CCC3C2=O)nc2ccccc2c1=O (configuration not stated),0.1,·
O=C(NCC1COc2ccccc2O1)c1ccc(=O)[nH]c1 (configuration not stated),-0.6,·
O=C1c2ccccc2C(=O)N1CCCC(=O)n1ccc2ccccc21,2.0,·
CC1(C)Nc2ccccc2C(=O)N1c1ccccc1,-3.7,2.5
C/C(=N\NC(=O)C1CC1)c1ccc(C(C)(C)C)cc1,0.6,·
COC(=O)Nc1nc2ccc(C(=O)c3ccccc3C(=O)OC(C)C)cc2[nH]1,0.9,-0.26
CCNC(=S)NN=C1CCC(C(C)(C)C)CC1 (configuration not stated),2.3,·
NNC(=O)c1nc(COc2ccccc2Cl)no1,-1.0,0.36
O=C(/C=C(\O)c1ccccc1)C(=O)Nc1cccc(F)c1,2.7,-0.32
Cc1cc(C)nc(NS(=O)(=O)c2ccc(NC(=O)Cn3c(=O)oc4ccccc43)cc2)n1,3.3,-0.12
CN1C=CC=C/C1=C1\SC(=S)N(C2CCCCC2)C1=O,2.9,0.064
CCCn1c(=O)n(Cc2ccc(C#N)cc2)c2ccccc21,-1.3,·
CC1=CC(=C2N=C(c3ccccc3)OC2=O)C=C(C)O1,1.0,-3.9
Cc1ccc(NC(=O)C2OCCc3ccccc32)cc1 (configuration not stated),-0.8,-0.56
CCOC(=O)c1c(C)[nH]c(C)c1S(=O)(=O)NCc1ccccc1C,0.6,·
CC[C@H](C)[C@H]1O[C@]2(CC[C@@H]1C)C[C@@H]1C[C@@H](C/C=C(\C)[C@@H](O[C@H]3C[C@H](OC)[C@@H](O[C@H]4C[C@H](OC)[C@@H](O)[C@H](C)O4)[C@H](C)O3)[C@@H](C)/C=C/C=C3\CO[C@@H]4[C@H](O)C(C)=C[C@@H](C(=O)O1)[C@]34O)O2,·,0.74
CC(=O)Oc1ccc(N(C(C)=O)S(=O)(=O)c2ccc(Cl)cc2)cc1,1.4,·
NC(=Nc1ccc(Cl)c(Cl)c1)c1ccccc1,0.7,·
CCN(Cc1ccncc1)C(=O)c1csc2ccccc12,4.3,-1.1
C[C@@H]1CCC2[C@](C)(CO)[C@@H](O)CC[C@]2(C)[C@@]12CCC(CO)(CCO)O2 (some centres not stated),-1.9,-0.54
Cc1ccccc1OCC(O)CN(C)C (configuration not stated),1.7,·
OCCSCCc1ccncc1,-0.4,0.12
CC(C)N(C(=S)NCc1ccccc1)C(C)C,-2.7,1
# More records follow:
SMILES,Ab BasE inh,LANA-nucl inh
Cc1cc(=O)[nH]c2ccccc12,0.4,·
O=C(CN1C(=O)S/C(=C\c2ccco2)C1=O)Nc1ccc(O)c(C(=O)O)c1,5.2,-0.53
Cc1nn2c(=O)cc(COc3cccc(NC(=O)c4cccs4)c3)nc2s1,-2.1,2.1
O=C1CSCC(=O)N1c1csc(C(F)(F)F)c1-c1ccccc1,-1.7,-0.23
CCOc1ccc(N/C=C/C(=O)c2ccco2)cc1,-4.3,1.9
Cc1cc(-c2nnc(SCC(N)=O)n2CC2CCCO2)cs1 (configuration not stated),-3.7,1.7
O=c1c2cnn(-c3ccccc3)c2ncn1Cc1cccnc1,-1.1,0.26
CN(Cc1nccn1C)C(=O)c1ccc2c(c1)S(=O)(=O)c1ccccc1C2=O,-0.1,·
COc1cc(/C=C2/C(=N)N3C=CSC3=NC2=O)cc(OC)c1OCCOc1ccc(C)c(C)c1,2.6,·
COc1cccc(/C=N/NC(=O)Cc2cccs2)c1,-0.1,0.29
CN(C)CCNC(=O)c1ccc(/C=C2\SC(=S)N(C)C2=O)cc1,-1.7,1.2
C=CCN(CC=C)C(=O)c1ccc(N2C(=O)CCC2=O)cc1,1.1,-0.029
CC(C)(C)NC(=O)c1ccncc1,1.7,-0.41
Cc1nc(COC(=O)c2cc(O)c3ccccc3c2O)cs1,-2.1,·
O=C(COc1ccc(-n2cnnn2)cc1)Nc1ccccc1,0.4,·
CCOc1ccc2oc(-c3ccccc3)c(C(=O)O)c2c1,-2.0,-0.68
NNC(=S)Nc1ccc(S(=O)(=O)N2CCOCC2)cc1,2.0,·
CCN(CC)c1ccc(-n2nc3cc(C)c(N)cc3n2)cc1,-1.4,-0.37
Cc1ccc(N(C(=O)Nc2c(-c3c(Cl)cccc3Cl)noc2C)S(C)=O)cc1 (configuration not stated),-0.2,-0.23
Cc1cc(C)nc(N/C=C(\C#N)S(=O)(=O)c2ccccn2)n1,0.5,0.049
OCCN1C2=NCCCN2c2ccccc21,1.4,-0.63
O=C(Cn1cc(C(F)(F)F)ccc1=O)Nc1ccc(S(=O)(=O)N2CCCC2)cc1,-3.2,·
O=C(COC(=O)C1CC(=O)N(Cc2ccco2)C1)NC1CCCc2ccccc21 (configuration not stated),-1.0,·
c1cncc(CNC2CCCc3ccccc32)c1 (configuration not stated),-0.7,-1.2
Cc1c(NC(=O)C(C)(C)C)c(=O)n(-c2ccccc2)n1C,1.7,·
# Next part:
SMILES,Ab BasE inh,LANA-nucl inh
CCc1ccc(NS(=O)(=O)c2ccc3c(c2)CC(=O)N3)cc1,-3.9,1.4
COc1ccc(N2C(=O)C3N=NN(CC(=O)NCc4ccccc4)C3C2=O)cc1OC (configuration not stated),2.0,-0.25
CN(C)CCCn1c(-c2ccccc2)csc1=Nc1ccccc1,-3.4,·
CCOC(=O)c1c(C)oc(C)c1CN,-0.4,0.91
Cc1ccc(NC(=O)CN(C)C(=O)Cn2c(=O)oc3ccccc32)cc1,-0.6,·
Cc1c(C(=O)NCc2ccco2)oc2c1C(O)CC(C)(C)C2 (configuration not stated),4.0,-0.49
COC(=O)[C@@H]1CC(C)=C(C)C[C@H]1C(=O)OC,·,0.57
OCc1cc2c(cc1Br)OCO2,·,-0.93
CC(O)/C=C/c1ccc2ccccc2n1 (configuration not stated),0.2,0.32
Cc1ccc(N2C(=O)CC(Nc3ccc(S(=O)(=O)N4CCCC4)cc3)C2=O)c(C)c1 (configuration not stated),1.7,·
O=C(CSc1nnc2ccc3ccccc3n12)NCC1CCCO1 (configuration not stated),2.5,·
CC(C)C(C)(C#N)NC(=O)CSc1nc(N)cc(=O)[nH]1 (configuration not stated),0.9,·
Cc1nn(C)c(C)c1Nc1n[nH]c(N)n1,0.2,·
O=C(O)CCn1nc(-c2ccc(F)cc2)ccc1=O,-1.8,·
CCCCn1c(N)c(N(C(=O)c2ccc(N3CCCC3=O)cc2)C2CCCC2)c(=O)[nH]c1=O,1.5,·
C/C(=N\N1C(=O)c2ccccc2NC12CCCCC2)c1ccccc1O,1.4,·
Cc1cc(Cl)c(S(=O)(=O)NCc2ccco2)cc1OCC(=O)NC1CCCCC1,-1.1,1.1
O=C(CN(C(=O)CSc1nc2ccccc2o1)c1cccc(F)c1)NC1CCCCC1,-2.5,2.2
CCC1Oc2ccccc2N(Cc2ccccc2C)C1=O (configuration not stated),0.9,2
Cc1ccccc1S(=O)c1ccccc1C(=O)O (configuration not stated),-0.3,·
O=C(Nc1ccc2ccccc2c1)C1CC(=O)N(C2CCCCC2)C1 (configuration not stated),-2.0,0.23
Cc1nn(-c2ccccc2)c(C)c1P(=Nc1ccccc1C(=O)O)(N1CCOCC1)N1CCOCC1,-1.6,·
CCCCCc1nnc(NC(=O)c2cccc(S(=O)(=O)N3CCCC3)c2)s1,-0.3,·
O=C(O)CCNc1ccc(Cl)cn1,-1.2,-1.3
COc1ccc(C(=O)NCCCCN2CCN(c3ncccc3C(F)(F)F)CC2)cc1,-0.6,-0.41
# Next section
SMILES,Ab BasE inh,LANA-nucl inh
N#Cc1cnn(-c2ccc(F)c(Cl)c2)c1N,1.5,-0.071
COc1ccc(-c2cnc3/c(=C4\CCCN4C)c(=O)n(-c4ccccc4)n23)cc1,1.0,·
C=CCc1ccccc1OCC(O)Cn1c2ccccc2c2ccccc21 (configuration not stated),1.7,·
COc1ccc(NC(=O)CC(C)C)cc1OC,1.8,·
COc1ccccc1CC(=O)NC1CC(C)(C)NC(C)(C)C1,0.3,0.033
CCN(Cc1ccncc1)Cn1nc(C2COc3ccccc3O2)oc1=S (configuration not stated),-0.4,·
CC[C@@H](CO)NCCN[C@@H](CC)CO,-1.4,-0.64&-0.56
CN(C)c1ccncc1C(=O)Nc1ccc(F)cc1F,·,-0.011
CCC(C)NC(=O)c1nn(C)c(=O)c2ccccc12 (configuration not stated),-0.6,·
Cc1nc2cc(C(=O)OCC(N)=O)ccc2n1-c1ccccc1,-13,·
O=C1N=C(N2CCCC2)S/C1=C/c1ccc(O)cc1,2.6,-0.89
CC(=O)OCC(COC(C)=O)OC(C)=O,-0.8,1.1&-0.38
N#C/C(=C\Nc1ccc(F)c(Cl)c1)C(=O)C1CC1,-1.3,-0.05
Cc1cccc(NC(=O)CC2Nc3ccccc3NC2=O)c1 (configuration not stated),2.7,0.61
COc1ccc(NS(=O)(=O)c2ccc3oc(SC)nc3c2)cc1,-1.1,·
CC1(C)O[C@@H]2CC3C4CCC5=CC(=O)CCC5(C)C4(F)C(O)CC3(C)[C@]2(C(=O)CCl)O1 (some centres not stated),-2.6,-1.4
Cc1nc(N2CCOCC2)[nH]c(=O)c1Cc1c(F)cccc1Cl,1.5,0.26
CCOC(=O)c1ccc(NC(=O)C(C)Sc2nc(O)c(NC(C)=O)c(=O)[nH]2)cc1 (configuration not stated),-2.0,0.73
O=S(=O)(Nc1ccccc1)c1cccc2nsnc12,5.9,-0.68

# Source: PubChem (ICCB-Longwood Screening Facility, Harvard Medical School)
